Assay outcomes: PubChem BioAssay, Broad Institute
HIV Env fusion = HIV envelope-mediated fusion inhibition. HeLa-JRFL Env/CEM21 cell fusion, luciferase. inhibition, % at 12.3 µM. 1.1% of 360,000 active. AID 651610;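 active means mean replicate inhibition score of at least 50 and every replicate individually at or above 50; inconclusive means only one of the two criteria met; inactive means mean below 50 and not all replicates reaching 50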;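 further: 0% = plate neutral controls and 100% = maraviroc near 300 nM; one replicate is shown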
UUG fidelity = modulators of start codon recognition fidelity in yeast. S. cerevisiae UUG-firefly luciferase reporter, luminescence/redox ratio. activity score, % at 18.7 µM. 0.13% of 350,000 active;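 active means replicate mean at a twofold rise or more, about +100% in these data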;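 further: firefly luciferase made from a UUG start codon reports start codon fidelity; reporter light over untreated wells divided by growth signal over untreated wells; some hits fall short of that in this replicate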
Active calls of the source: *; ? = inconclusive; [ ] = dose if it differs, or a comment. Only part of the results is shown, so the mix of outcomes need not match the whole.

HIV Env fusion,UUG fidelity,SMILES
-11[16.7 µM],8,CC(=O)Nc1ccc2c(c1)C(=O)N(C)[C@H]1CC[C@H](CC(=O)N3CCc4ccccc4C3)O[C@@H]1CO2
-22[16.7 µM],5,CC(=O)N(C)C[C@@H]1Oc2ncc(C#Cc3ccncc3)cc2C(=O)N([C@H](C)CO)C[C@H]1C
3[16.7 µM],-11,C[C@@H]1CN([C@@H](C)CO)C(=O)c2cc(C#CC3(O)CCCC3)cnc2O[C@H]1CN(C)Cc1ccncc1
-7[16.7 µM],-2,O=C(N[C@H]1CC[C@H](CCNS(=O)(=O)c2ccc(Cl)cc2)O[C@H]1CO)c1cccnc1
32[16.7 µM],48,CO[C@@H]1CN(C)C(=O)c2ccc(NC(=O)C3CC3)cc2OC[C@H](C)N(C(=O)c2cnccn2)C[C@@H]1C
-26[16.7 µM],-6,COCC(=O)Nc1ccc2c(c1)C(=O)N(C)[C@@H]1CC[C@H](CC(=O)NCc3cccc(F)c3)O[C@H]1CO2
19[16.7 µM],26,C[C@@H]1CCCCO[C@H](CN(C)C)[C@H](C)CN([C@@H](C)CO)C(=O)c2cc(NS(=O)(=O)c3ccccc3)ccc2O1
-11[16.7 µM],-27,O=C(C[C@@H]1CC[C@H](NC(=O)C2CCC2)[C@@H](CO)O1)Nc1nccs1
3[16.7 µM],-6,C[C@@H]1CN([C@@H](C)CO)C(=O)c2cc(NC(=O)Nc3cccc4ccccc34)ccc2O[C@H]1CN(C)Cc1ccc(Cl)c(Cl)c1
2[16.7 µM],4,C[C@H](CO)N1C[C@H](C)[C@H](CN(C)Cc2ccc3c(c2)OCO3)Oc2ccc(NC(=O)NC3CCCCC3)cc2C1=O
11[16.7 µM],-2,Cc1noc(C)c1S(=O)(=O)Nc1ccc2c(c1)CC(=O)N([C@H](C)CO)C[C@H](C)[C@H](CN(C)CC1CC1)O2
17[16.7 µM],5,C[C@H]1CN([C@@H](C)CO)C(=O)c2cc(-c3ccc(C(=O)N(C)C)cc3)cnc2O[C@@H]1CN(C)C(=O)C1CC1
-17[16.7 µM],-9,C[C@@H]1CN([C@H](C)CO)C(=O)c2cc(NC(=O)Nc3ccc4c(c3)OCO4)ccc2O[C@@H](C)CCCCO[C@@H]1CN(C)C(=O)C1CCCCC1
34[16.7 µM],22,Cc1noc(C)c1NC(=O)Nc1ccc2c(c1)C(=O)N([C@H](C)CO)C[C@H](C)[C@H](CN(C)C(=O)CCCN(C)C)OCCCC[C@H](C)O2
-8[16.7 µM],-4,C[C@@H]1CN([C@H](C)CO)C(=O)c2cc(N(C)C)ccc2O[C@H]1CN(C)Cc1ccc(C(=O)O)cc1

Ordered by molar mass (rising): some entries from above.
HIV Env fusion,UUG fidelity,SMILES
-11[16.7 µM],-27,O=C(C[C@@H]1CC[C@H](NC(=O)C2CCC2)[C@@H](CO)O1)Nc1nccs1
-7[16.7 µM],-2,O=C(N[C@H]1CC[C@H](CCNS(=O)(=O)c2ccc(Cl)cc2)O[C@H]1CO)c1cccnc1
-8[16.7 µM],-4,C[C@@H]1CN([C@H](C)CO)C(=O)c2cc(N(C)C)ccc2O[C@H]1CN(C)Cc1ccc(C(=O)O)cc1
-11[16.7 µM],8,CC(=O)Nc1ccc2c(c1)C(=O)N(C)[C@H]1CC[C@H](CC(=O)N3CCc4ccccc4C3)O[C@@H]1CO2
32[16.7 µM],48,CO[C@@H]1CN(C)C(=O)c2ccc(NC(=O)C3CC3)cc2OC[C@H](C)N(C(=O)c2cnccn2)C[C@@H]1C
-26[16.7 µM],-6,COCC(=O)Nc1ccc2c(c1)C(=O)N(C)[C@@H]1CC[C@H](CC(=O)NCc3cccc(F)c3)O[C@H]1CO2
11[16.7 µM],-2,Cc1noc(C)c1S(=O)(=O)Nc1ccc2c(c1)CC(=O)N([C@H](C)CO)C[C@H](C)[C@H](CN(C)CC1CC1)O2
2[16.7 µM],4,C[C@H](CO)N1C[C@H](C)[C@H](CN(C)Cc2ccc3c(c2)OCO3)Oc2ccc(NC(=O)NC3CCCCC3)cc2C1=O
3[16.7 µM],-6,C[C@@H]1CN([C@@H](C)CO)C(=O)c2cc(NC(=O)Nc3cccc4ccccc34)ccc2O[C@H]1CN(C)Cc1ccc(Cl)c(Cl)c1
34[16.7 µM],22,Cc1noc(C)c1NC(=O)Nc1ccc2c(c1)C(=O)N([C@H](C)CO)C[C@H](C)[C@H](CN(C)C(=O)CCCN(C)C)OCCCC[C@H](C)O2
-17[16.7 µM],-9,C[C@@H]1CN([C@H](C)CO)C(=O)c2cc(NC(=O)Nc3ccc4c(c3)OCO4)ccc2O[C@@H](C)CCCCO[C@@H]1CN(C)C(=O)C1CCCCC1

The list goes on.
HIV Env fusion,UUG fidelity,SMILES
0[16.7 µM],-13,CO[C@H]1CN(C)C(=O)c2ccc(NC(=O)c3cccc(F)c3)cc2OC[C@H](C)NC[C@@H]1C
8[16.7 µM],2,C[C@@H]1CN([C@@H](C)CO)C(=O)CCCn2cc(nn2)CO[C@H]1CN(C)S(=O)(=O)c1ccc(F)cc1
-9[16.7 µM],7,O=C(NC1CCCCC1)N[C@H]1CC[C@H](CCNS(=O)(=O)c2ccc(F)cc2)O[C@@H]1CO
-89[16.7 µM],1,Cc1noc(C)c1S(=O)(=O)N(C)C[C@@H]1OCCCC[C@@H](C)Oc2ccc(NC(=O)Nc3ccc(F)cc3)cc2C(=O)N([C@@H](C)CO)C[C@H]1C
-13[16.7 µM],2,Cc1noc(C)c1NC(=O)N(C)C[C@H]1OCCCC[C@H](C)Oc2ccc(NC(=O)CCC(F)(F)F)cc2C(=O)N([C@@H](C)CO)C[C@@H]1C
-82[16.7 µM],32,COc1ccc(S(=O)(=O)Nc2ccc3c(c2)C(=O)N([C@H](C)CO)C[C@@H](C)[C@H](CN(C)Cc2ccccc2)OCCCC[C@@H](C)O3)cc1
1[16.7 µM],4,C[C@@H]1CN([C@H](C)CO)C(=O)c2cc(NC(=O)NC3CCCCC3)ccc2O[C@H]1CN(C)S(=O)(=O)c1cccs1
-1[16.7 µM],2,C[C@@H]1CCCCO[C@@H](CN(C)Cc2ccc(C(F)(F)F)cc2)[C@@H](C)CN([C@H](C)CO)C(=O)c2cc(NS(C)(=O)=O)ccc2O1
2[16.7 µM],-1,COC(=O)C[C@@H]1C[C@@H]2c3cc(NS(=O)(=O)c4cccc(OC)c4)ccc3O[C@@H]2[C@@H](CO)O1
0[16.7 µM],4,O=C(C[C@@H]1CC[C@@H](NC(=O)c2cccnc2)[C@H](CO)O1)NCc1ccc(Cl)c(Cl)c1
26[16.7 µM],2,O=C(C[C@H]1C=C[C@@H](NC(=O)Nc2ccccc2F)[C@@H](CO)O1)NCc1ccc(F)cc1
-10[16.7 µM],-5,C[C@@H]1CN([C@H](C)CO)C(=O)c2cc(NC(=O)CCC(F)(F)F)ccc2O[C@@H](C)CCCCO[C@@H]1CN(C)S(=O)(=O)c1ccc(Cl)cc1
-5[16.7 µM],8,C[C@@H]1CN([C@@H](C)CO)C(=O)c2cc(N(C)C)ccc2O[C@@H](C)CCCCO[C@H]1CN(C)Cc1ccccc1
9[16.7 µM],-7,O=C(C[C@H]1C[C@H]2c3cc(NC(=O)Nc4ccc(C(F)(F)F)cc4)ccc3O[C@H]2[C@H](CO)O1)NCc1ccc2c(c1)OCO2
8[16.7 µM],-3,CC(C)NC(=O)N(C)C[C@H]1Oc2ccc(NC(=O)CCCCCC(=O)Nc3ccccc3N)cc2CC(=O)N([C@H](C)CO)C[C@H]1C
-9[16.7 µM],-1,CO[C@H]1CN(C)C(=O)c2ccc(NC(=O)Nc3cccc(F)c3)cc2OC[C@@H](C)N(C)C[C@@H]1C
1[16.7 µM],-8,C[C@@H]1CCCCO[C@H](CN(C)C)[C@@H](C)CN([C@H](C)CO)C(=O)c2cc(NS(=O)(=O)c3ccc(Cl)cc3)ccc2O1
-18[16.7 µM],8,C[C@@H]1CCCCO[C@@H](CN(C)C(=O)CCC(F)(F)F)[C@H](C)CN([C@@H](C)CO)C(=O)c2cc(NC(=O)c3ccccc3)ccc2O1
5[16.7 µM],-11,CN1CCN(C(=O)C[C@@H]2C=C[C@H](NC(=O)Cc3ccccn3)[C@H](CO)O2)CC1
36[16.7 µM],10,C[C@@H]1CN([C@H](C)CO)C(=O)Cc2cc(NC(=O)Nc3ccc(C(F)(F)F)cc3)ccc2O[C@@H]1CN(C)Cc1ccc(C(F)(F)F)cc1
2[16.7 µM],1,C[C@@H]1CN([C@@H](C)CO)C(=O)c2cccc(NC(=O)c3nc4ccccc4s3)c2O[C@@H]1CN(C)S(=O)(=O)c1cccs1
3[16.7 µM],3,CC(=O)N(C)C[C@H]1Oc2ncc(C#CC(C)(C)O)cc2C(=O)N([C@H](C)CO)C[C@H]1C
12[16.7 µM],-7,CN1C(=O)c2cc(NC(=O)C3CCCCC3)ccc2OC[C@H]2O[C@H](CC(=O)NCCc3ccncc3)CC[C@H]21
22[16.7 µM],11,C[C@H]1CN([C@@H](C)CO)S(=O)(=O)c2ccc(Br)cc2O[C@H]1CN(C)C(=O)C1CC1
11[16.7 µM],2,Cc1ccc(S(=O)(=O)N(C)C[C@H]2Oc3ccc(NC(=O)Nc4ccc(C(F)(F)F)cc4)cc3CC(=O)N([C@H](C)CO)C[C@@H]2C)cc1
1[16.7 µM],-5,C/C=C/c1cnc2c(c1)C(=O)N([C@H](C)CO)C[C@@H](C)[C@H](CN(C)S(=O)(=O)c1ccccc1F)O2
-12[16.7 µM],-14,CO[C@@H]1CN(C)C(=O)c2cc(NC(C)=O)ccc2OC[C@@H](C)N(C(=O)CN2CCOCC2)C[C@H]1C
6[16.7 µM],5,Cc1ccc(S(=O)(=O)Nc2ccc3c(c2)CC(=O)N([C@@H](C)CO)C[C@H](C)[C@@H](CN(C)Cc2ccc(Oc4ccccc4)cc2)O3)cc1
-7[16.7 µM],-4,N#C[C@H]1[C@@H](c2ccccc2)[C@@H](CO)N1S(=O)(=O)c1cccc(F)c1
13[16.7 µM],-8,CC(C)NC(=O)N(C)C[C@@H]1Oc2ccc(NC(=O)NC3CCCCC3)cc2C(=O)N([C@@H](C)CO)C[C@@H]1C
-5[16.7 µM],-9,COc1ccc(NC(=O)Nc2ccc3c(c2)[C@@H]2C[C@@H](CC(=O)NCc4ccncc4)O[C@H](CO)[C@@H]2O3)cc1
9[16.7 µM],37,CNC[C@@H]1OCCCC[C@@H](C)Oc2ccc(NS(=O)(=O)c3ccc(F)cc3)cc2C(=O)N([C@@H](C)CO)C[C@H]1C
-12[16.7 µM],22,C[C@@H]1CN([C@H](C)CO)C(=O)c2cc(NS(=O)(=O)c3ccc(Cl)cc3)ccc2O[C@@H](C)CCCCO[C@@H]1CN(C)CC1CCCCC1
20[16.7 µM],140*,COc1ccc(-c2cnc3c(c2)C(=O)N([C@@H](C)CO)C[C@H](C)[C@@H](CN(C)C(=O)NC2CCCC2)O3)cc1
0[16.7 µM],-5,C[C@H](NC(=O)C[C@H]1CC[C@@H](NC(=O)Cc2ccccn2)[C@@H](CO)O1)c1ccccc1
-1[16.7 µM],-7,C[C@@H]1CN([C@H](C)CO)C(=O)c2cc(C3=CCCCC3)cnc2O[C@@H]1CN(C)Cc1cccnc1
-17[16.7 µM],13,COCC(=O)Nc1ccc2c(c1)C(=O)N(C)[C@@H]1CC[C@H](CC(=O)NCCc3ccccc3)O[C@@H]1CO2
-16[16.7 µM],3,C[C@@H]1CCCCO[C@H](CN(C)C(=O)Nc2cccc3ccccc23)[C@H](C)CN([C@@H](C)CO)C(=O)c2cc(NC(=O)CCC(F)(F)F)ccc2O1
4[16.7 µM],3,COc1ccc(CN(C)C[C@H]2Oc3ccc(NC(=O)Nc4ccc(OC)cc4)cc3C(=O)N([C@@H](C)CO)C[C@H]2C)cc1
11[16.7 µM],-10,O=C(C[C@@H]1C[C@H]2c3cc(NC(=O)C4CCOCC4)ccc3O[C@H]2[C@@H](CO)O1)NCc1cccc(F)c1
-6[16.7 µM],0,CC(C)NC(=O)Nc1ccc2c(c1)C(=O)N([C@H](C)CO)C[C@H](C)[C@@H](CN(C)C(=O)Nc1ccc3c(c1)OCO3)OCCCC[C@@H](C)O2
?,1,C[C@@H]1CN([C@@H](C)CO)C(=O)c2cccc(NS(=O)(=O)c3ccc(Cl)cc3)c2O[C@@H]1CN(C)Cc1ccc(Cl)c(Cl)c1
23[16.7 µM],-17,C[C@H](CO)N1C[C@H](C)[C@@H](CN(C)C(=O)Nc2ccc(C(F)(F)F)cc2)OCCCC[C@H](C)Oc2ccc(NC(=O)CCC(F)(F)F)cc2C1=O
-12[16.7 µM],1,O=C(C[C@H]1C=C[C@H](NC(=O)CCN2CCCCC2)[C@H](CO)O1)Nc1ccc(-c2ccccc2)cc1
-5[16.7 µM],-5,COc1ccc(-c2cnc3c(c2)C(=O)N([C@H](C)CO)C[C@@H](C)[C@@H](CN(C)C(=O)Nc2c(C)noc2C)O3)cc1
-12[16.7 µM],56,C[C@H]1CN([C@@H](C)CO)S(=O)(=O)c2ccc(-c3ccncc3)cc2O[C@@H]1CN(C)C(=O)Nc1ccc(F)cc1
-8[16.7 µM],-12,COCC(=O)Nc1ccc2c(c1)[C@H]1C[C@H](CC(=O)N3CCCCC3)O[C@@H](CO)[C@H]1O2
-12[16.7 µM],4,C[C@@H]1CCCCO[C@H](CN(C)C(=O)Cc2ccccc2)[C@@H](C)CN([C@@H](C)CO)C(=O)c2cc(NC(=O)C3CCCCC3)ccc2O1
6[16.7 µM],-12,COc1cccc(-c2ccc3c(c2)O[C@H](CN(C)C(=O)C2CCCCC2)[C@H](C)CN([C@@H](C)CO)S3(=O)=O)c1
7[16.7 µM],7,C[C@H]1CCCCO[C@@H](CN(C)S(=O)(=O)c2ccccc2)[C@@H](C)CN([C@@H](C)CO)C(=O)c2cc(NC(=O)C3CCCCC3)ccc2O1
